NPYLR7 ag – activates Aedes aegypti NPYLR7 receptor; AID 1259423; HEK293T NPYLR7/Galpha15, GCaMP6s calcium fluorescence; actives 0.15% (n = 270,000); activation, % at 10 µM; in the data active = activation above about 40%;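 also: 0% = vehicle and 100% = reference agonist at the receptor; some compounds past the cut are filed as inactive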
NPYLR7 ag max-min – further read-out of NPYLR7 ag, marked with its call; activation, %; measured here: Max-Min RFU normalised activation; some inactives read as strong as hits;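 span of the calcium signal over five minutes; 0% = vehicle and 100% = native peptide agonist; compound fluorescence can raise it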
Active calls of the source: *; & = joins results of further samples. This is a subset (hit frequency here may not be typical).

structure | NPYLR7 ag | NPYLR7 ag max-min
CN1CCN(c2nc3c(c(=O)n(C)c(=O)n3C)n2Cc2ccccc2)CC1 | -6.0 | -7.2
COc1ccc(Nc2nnc(-c3cc4cc(Cl)ccc4oc3=O)s2)c(OC)c1 | -10.3 | -19.5
CCc1cnc(CNC(=O)N2CCOCC2CC)s1 (stereo not given) | -0.6 | -2.4
COc1ccccc1Cn1c(C(=O)N2CCN(Cc3ccc4c(c3)OCO4)CC2)cc2ccsc21 | -1.6 | 5.9
COCCCNC(=O)c1ccccc1N1CCC(NC(=O)Nc2ccc(C)cc2)CC1 | -1.5 | 3.9
CC(=O)Nc1ccc(NC(=O)Cn2cnc3c(nnn3Cc3ccc(C)cc3)c2=O)cc1 | 7.6 | 7.4
Cc1cc2nc(-c3cccc(NC(=O)c4ccc(Cl)c([N+](=O)[O-])c4)c3)oc2cc1C | 10.8 | 8.2
O=C1NC(=Nc2ccccc2Cl)S/C1=C/c1cccc2ccccc12 | -9.2 | -10.9
Cc1occc1C(=O)N(C)C(C)c1cccc(S(N)(=O)=O)c1 (stereo not given) | 9.6 | 7.0
CC(CNc1ccnc(C(=O)NCc2cccnc2)c1)c1ccccc1 (stereo not given) | 6.7 | 4.8
O=C1CCCC(=O)N1CCS(=O)(=O)N1CCC(c2nnc(C3CC3)o2)CC1 | -16.6 | -17.4
Cc1cnc(-c2ccccc2CO)c(Cl)c1 | -5.1 | -4.4
CC(C)CN1C(=O)c2ccc(-c3nc4ccccc4c(=O)o3)cc2C1=O | 2.4 | 9.3
COc1ccc(CSc2nnc(-c3ccc(F)cc3)n2-c2ccccc2)cc1 | -1.8 | 11.3
CCOc1ccccc1-c1cc(C(=O)N2CCN(C)CC2C)[nH]n1 (stereo not given) | -12.2 | -11.3

Other results
structure | NPYLR7 ag | NPYLR7 ag max-min
Cc1nonc1CN(C)CC1(O)CCCN(Cc2ccc(C(C)C)cc2)C1=O (stereo not given) | 6.2 | 1.5
COc1ccc(CCNC(=O)c2c(C)noc2-c2ccccc2Cl)cn1 | 9.8 | 15.5
Cc1cc2c(cc1C)NC(c1ccccc1C(F)(F)F)C1C(=O)CC(C)(C)CC1=N2 (stereo not given) | -3.7 | -8.1
CCc1ccc(-c2cc3c(=O)n(Cc4nc(-c5cc(OC)cc(OC)c5)no4)ccn3n2)cc1 | 0.1 | -5.9
COc1cc(-c2nc(C=Nc3cccc(C(F)(F)F)c3)c(O)o2)cc(OC)c1OC | -1.5 | -6.3
CC(C)Nc1ccnc(N2CCC(N3CCCC(C(=O)N4CCCC4)C3)CC2)n1 (stereo not given) | 11.9 | 5.7
COc1ccc(CN(Cc2nc(C(=O)NCc3ccncc3)co2)C(C)C)cc1 | 13.1 | 7.2
COc1ccc(OCc2nc(CSc3ccc(F)cc3F)cs2)cc1 | 15.2 | 18.3
O=C(c1cc(-c2ccc(F)cc2)c[nH]1)N1CCOCC1 | -2.9 | -3.8
CSCCC(=O)N1CCCC(Nc2ccc(C(C)C)cc2)C1 (stereo not given) | -3.9 | -2.2
O=C(c1ccc(-c2ccccc2)cc1)N1N=C2CCCCC2C1(O)C(F)(F)F (stereo not given) | 8.3 | 6.2
CC(C)c1ccc(C(=O)N2CCN(Cc3cc(=O)n4ccsc4n3)CC2)c(C(C)C)c1 | 0.9 | 5.7
CCc1ccc(S(=O)(=O)c2cnc(SCC(=O)Nc3cccc(SC)c3)[nH]c2=O)cc1 | 3.1 | 4.4
CC(=O)Nc1sc2c(c1CN1CCN(C)CC1)CCCC2 | 5.5 | 2.3
COCC(O)CN(CC(=O)N1CCc2sccc2C1COc1ccccc1)CC1CCCO1 (stereo not given) | -2.1 | 12.7

Arranged by SMILES length (low to high): some entries from above
structure | NPYLR7 ag | NPYLR7 ag max-min
Cc1cnc(-c2ccccc2CO)c(Cl)c1 | -5.1 | -4.4
CCc1cnc(CNC(=O)N2CCOCC2CC)s1 (stereo not given) | -0.6 | -2.4
CC(=O)Nc1sc2c(c1CN1CCN(C)CC1)CCCC2 | 5.5 | 2.3
CSCCC(=O)N1CCCC(Nc2ccc(C(C)C)cc2)C1 (stereo not given) | -3.9 | -2.2
COc1ccc(OCc2nc(CSc3ccc(F)cc3F)cs2)cc1 | 15.2 | 18.3
CC(CNc1ccnc(C(=O)NCc2cccnc2)c1)c1ccccc1 (stereo not given) | 6.7 | 4.8
CCOc1ccccc1-c1cc(C(=O)N2CCN(C)CC2C)[nH]n1 (stereo not given) | -12.2 | -11.3
COc1ccc(CSc2nnc(-c3ccc(F)cc3)n2-c2ccccc2)cc1 | -1.8 | 11.3
CC(C)CN1C(=O)c2ccc(-c3nc4ccccc4c(=O)o3)cc2C1=O | 2.4 | 9.3
COCCCNC(=O)c1ccccc1N1CCC(NC(=O)Nc2ccc(C)cc2)CC1 | -1.5 | 3.9
COCC(O)CN(CC(=O)N1CCc2sccc2C1COc1ccccc1)CC1CCCO1 (stereo not given) | -2.1 | 12.7
O=C(c1ccc(-c2ccccc2)cc1)N1N=C2CCCCC2C1(O)C(F)(F)F (stereo not given) | 8.3 | 6.2
COc1cc(-c2nc(C=Nc3cccc(C(F)(F)F)c3)c(O)o2)cc(OC)c1OC | -1.5 | -6.3
CC(=O)Nc1ccc(NC(=O)Cn2cnc3c(nnn3Cc3ccc(C)cc3)c2=O)cc1 | 7.6 | 7.4
Cc1cc2c(cc1C)NC(c1ccccc1C(F)(F)F)C1C(=O)CC(C)(C)CC1=N2 (stereo not given) | -3.7 | -8.1
CC(C)c1ccc(C(=O)N2CCN(Cc3cc(=O)n4ccsc4n3)CC2)c(C(C)C)c1 | 0.9 | 5.7
CCc1ccc(S(=O)(=O)c2cnc(SCC(=O)Nc3cccc(SC)c3)[nH]c2=O)cc1 | 3.1 | 4.4
Cc1cc2nc(-c3cccc(NC(=O)c4ccc(Cl)c([N+](=O)[O-])c4)c3)oc2cc1C | 10.8 | 8.2

The results go on.
structure | NPYLR7 ag | NPYLR7 ag max-min
COc1cc(C#N)ccc1OCc1cc2c(cc1Br)OCO2 | -1.4 | 0.2
COc1cc(C)ccc1S(=O)(=O)NC(=O)C1(C)CCN1C(=O)CC(c1ccccc1)c1ccccc1 (stereo not given) | 7.2 | 4.1
O=C1CC2(CCCCC2)Oc2cc3ccccc3cc21 | 4.0 | 2.1
CCOc1ccc(N2CCN(C(=O)c3ccc(Cl)c(Cl)c3)C(C)C2=O)cc1 (stereo not given) | 3.0 | 17.2
COc1ccc(Nc2nccc3[nH]c(-c4ccc(C)cc4)nc23)cc1OC | -4.8 | -9.3
COc1ccc(Cl)cc1CN(C)C(C(=O)NC1CC1)c1ccccc1 (stereo not given) | -1.8 | -2.1
CC(CCc1ccccc1)NC(=O)CSc1nc(Cl)cc(N2CCN(C(=O)C3CCCC3)C(C)C2)n1 (stereo not given) | 12.1 | 15.6
COc1ccc(Nc2nc(NCC3CCCO3)nc3c2cnn3-c2ccccc2)cc1 (stereo not given) | -0.1 | -2.1
O=C1OCCN1c1ccc(C(=O)N(Cc2ccco2)C2CC2)cc1 | -2.2 | 1.6
C=C(C)CN(CC)C(=O)C1(c2cc(C)cc(C)c2)CCC1 | 2.7 | 1.1
CCN(c1ccccc1)S(=O)(=O)c1ccc(OC)c(NC(=O)C2CCCN(S(C)(=O)=O)C2)c1 (stereo not given) | 0.6 | -1.8
O=C(CC(NCCC1=CCCCC1)C(=O)O)Nc1ccc(Nc2ccccc2)cc1 (stereo not given) | 8.8 | 5.7
CCN1C(=O)C2(SC(C)(C)CN2C(=O)Nc2cccc(F)c2)c2ccccc21 (stereo not given) | -1.8 | 2.9
O=C1/C(=C/c2ccc(-c3cc(Cl)ccc3Cl)o2)C=C(c2ccccc2)N1c1ccccc1O | 1.3 | 6.5
Cc1ccc(CNC(=O)NC(CC(C)C)C(=O)N2CCN(C(=O)C3CC3)CC2)cc1 (stereo not given) | 8.9 | 5.8

Going on with the list.
structure | NPYLR7 ag | NPYLR7 ag max-min
C=CCn1nc(C(=O)O)c2c1CCC(N1CC(Oc3cccc(C)c3)C1)C2 (stereo not given) | 32.0 | 15.6
Cc1ccsc1C(=O)N1CCC1(C)C(=O)Nc1ccccc1 (stereo not given) | -4.8 | -2.1
CSc1nnc(C)c(=O)n1COC(=O)c1cc(Cl)ccc1[N+](=O)[O-] | -2.4 | -2.9
CC(C)(C)n1ncc(O)c(Cl)c1=O | 0.0 | -0.8
CN(Cc1ccc(F)cc1)Cc1nc(CCc2ccccc2)no1 | 2.0 | -2.7
Cc1ccsc1CN(C)Cn1nc(-c2ccc(Cl)cc2)n(C)c1=S | -2.8 | -4.4
CN1CCNC(=O)C1CC(=O)N1CCN(C2C3CC4CC(C3)CC2C4)CC1 (stereo not given) | -0.9 | -5.0
CCc1nc2ccc(C(=O)Nc3ccc(OC)c(OC)c3)cn2c1N(C)Cc1ccc(N(C)C)cc1 | 10.0 | -3.9
N#CC1(C(=O)Nc2ccc(C(F)(F)F)cc2)CCCC1 | 0.9 | -1.2
CCCN(C)c1cc(Oc2ccc(C)cc2)ncn1 | -6.8 | -0.6
O=C(c1cnc2n(c1=O)CCS2)N(c1ccccc1)C1CCCCC1 | -4.3 | -5.4
COc1c(Cl)cc(Cl)cc1CN1CCCC(N(C)C)CC1 (stereo not given) | 0.3 | -2.6
Cc1ncc2c(c1CNC(=O)/C=C/c1cccs1)CCN(C(=O)c1ccc(-n3cccn3)cc1)C2 | 6.6 | 7.5
COCCN1C(=O)C2(SCCN2C(=O)c2ccc(OC)cc2)c2ccccc21 (stereo not given) | 13.2 | 10.9
Clc1ccccc1OCCn1cc(C2CC=CCC2)nn1 (stereo not given) | 5.6 | 2.6

The listing continues:
structure | NPYLR7 ag | NPYLR7 ag max-min
O=C(c1cnc2cc3c(cc2c1)OCO3)c1cc(F)ccc1O | 5.1 | 5.7
Cn1cnc(S(=O)(=O)NC2C3COCC2CN(CCOc2ccccc2)C3)c1 (stereo not given) | 15.8 | 7.3
Cc1ccc(Cn2c(C)cc(C)c2C(=O)Nc2ccc(C(C)C)cc2)cc1 | -1.0 | 12.1
CCn1nnc2c(Nc3c(C)cc(C)cc3C)ncnc21 | 5.1 | 10.3
CC(C)c1ccc(NC2CCCN(C(=O)c3ccc(C#CC(C)(C)O)o3)C2)cc1 (stereo not given) | 9.5&21.7 | 9.2&17.7
CSc1ccc(NC(=O)C2(C)CCN2C(=O)Cc2ccc(-c3ccccc3)cc2)cc1 (stereo not given) | 3.2 | 3.4
Cc1ccc(-c2nc(C=Nc3cccc(C)c3)c(O)o2)cc1 | -5.5 | -11.3
CC(C)CNC(=O)c1cc(NC(=O)/C=C/c2ccccc2)ccc1N1CCC(Cc2ccccc2)CC1 | 6.6 | 5.6
CNCc1cn(CC2CCCN(C(=O)CN3CCC(C)CC3)C2)nn1 (stereo not given) | -2.4 | -8.3
CCc1ccc(-n2c(C)cc(/C=C3\C(=N)N4N=CSC4=NC3=O)c2C)cc1 | 0.7 | -0.6
COc1ccc(C2=NN(C(=O)CSc3nc(=O)n4ccc(C)cc4n3)C(c3ccc(C)cc3)C2)cc1 (stereo not given) | 4.5 | 1.7
Cc1nc2c(C)cccn2c(=O)c1NC(=O)c1ccc(Br)o1 | 2.6 | -0.1
O=C(Nc1cccc([N+](=O)[O-])c1)c1cc(Cl)ccn1 | 7.5 | 6.9
Cc1noc(C)c1CC(=O)N1CCCC2(CC1)CNC(=O)O2 (stereo not given) | 6.3 | 6.3
O=C(CN1CCN(C(=O)N2CCCCC2)CC1)Nc1ccc(F)cc1 | 6.1 | 1.0

Later entries.
structure | NPYLR7 ag | NPYLR7 ag max-min
c1ccc(CN2CCc3ncnc(NC4CCNCC4)c3C2)cc1 | 0.3 | -1.5
COC(=O)c1c(C)[nH]c(C(=O)C(C)Sc2nnnn2C)c1C (stereo not given) | -1.4 | -2.9
CCn1c(C2CCN(Cc3cc4c(cc3OC)OCO4)CC2)nn(C)c1=O | 0.6 | -0.2
CC(C)(C)CC(=O)NCCNc1nc(-c2ccco2)nc2ccccc12 | 0.7 | 3.5
COc1ccc(-c2cnnc(N3CCN(c4nc(C)cnc4C)CC3)n2)cc1 | 5.1&-0.9 | 4.6&0.4
O=C(CCC1CCN(Cc2ncc[nH]2)CC1)Nc1ccccc1Cl | 3.8 | -2.0
Cc1c(C(C)NC(=O)c2ccc3c(c2)C(=O)N(C)C3=O)cnn1-c1ccccn1 (stereo not given) | 11.8 | 5.7
COc1ccccc1NC(=O)N(C)CCN1C(=O)C(C)SC1c1cccs1 (stereo not given) | 1.5 | 13.4
O=C(NCC1CCCCC1)c1ccccc1N1CCC(NC(=O)C2CC2)CC1 | -2.9 | -2.5
COc1cc(S(=O)(=O)Nc2cccnc2)c(C)cc1C | 17.8 | 11.0
CCc1nc(Cn2ccnc2-c2ccc3c(c2)CCN3C(C)C)no1 | 21.4 | 11.6
Cc1c(NC(=O)Nc2cccc3c2CCCC3)n(C)c(=O)n1-c1ccccc1 | -11.1 | -18.2
CCC1CN(Cc2cc(=O)n(C)c(=O)n2C)CCO1 (stereo not given) | 10.6 | 8.2
Cc1ccc2nc(N/N=C\c3cccc(Br)c3)nc(-c3ccccc3)c2c1 | -4.7 | -7.0
CCCC1CCC(=NNC(=O)c2nn(C)c(=O)c3ccccc23)CC1 (stereo not given) | 0.8 | 20.7

More results.
structure | NPYLR7 ag | NPYLR7 ag max-min
COCC(=O)NC(c1ccccc1)c1ccc(C)c(C)c1 (stereo not given) | -1.4 | -2.6
CCC(=O)Nc1cccc(OCC(=O)N2CCN(c3ncccn3)CC2)c1 | -1.6 | -5.9
Cc1ccccc1-c1ncc(CNCCSc2nnnn2C)s1 | 0.3 | -2.2
O=C1C2CCCCN2C(=S)N1CCc1ccccc1 (stereo not given) | 1.4 | 2.4
COc1c(C)cc(S(=O)(=O)NCC(c2ccsc2)N2CCCC2)cc1C (stereo not given) | 4.5 | -6.8
O=S(=O)(c1cccs1)N1CCN(c2cnccn2)CC1 | 1.8 | -0.9

Screens from PubChem.
